# Screens from PubChem BioAssay.
# HIV TAR-Tat: HIV-1 TAR-Tat binding disruption. z-score (concentration not given with the values). 100,000 tested, 0.6% active. AID 1259389. HIV-1 TAR RNA, Tat peptide displacement FRET; stronger effect = higher value;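 note: score is relative to mean and SD of negative controls; some compounds called inactive have numbers as strong as hits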
# CDC25B CDK2 inh: human CDC25B-CDK2/CyclinA binding inhibition; 94,000 tested, 0.72% active; HTRF CDC25B-CDK2/CyclinA binding, anti-His/anti-Flag; stronger effect = higher value; AID 1259370; z-score (no concentration beside the values); P30305+P24941;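 note: score is relative to mean and SD of negative controls; strong numbers were not always called active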
# * hit, by the source's call; nt = no result given.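 Rule for the calls: active = z-score from 3 up in half or more of its runs; inactive = the rest.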
# Every second line gives: HIV TAR-Tat	CDC25B CDK2 inh
- Cn1c(-c2ccc(F)cc2)cnc1NCc1cccc(Br)c1
    -0.97	-0.28
- Cc1ccccc1OCCCn1c(C(C)O)nc2ccccc21 (configuration not stated)
    1.1	0.22
- COCCN(Cc1ccco1)C(=O)Nc1cn(CC(C)C)c(=O)c2ccccc12
    0.25	nt
- CCC(C)C1Nc2ccc(C(=O)OC)cc2NC1=O (configuration not stated)
    0.31	nt
- O=C1c2cnccc2CN1Cc1ccc(F)cc1
    -1.4	-0.43
- CN1C(=O)c2ccc(N)cc2C1=O
    nt	-0.67
- CSC1=N[S@@](=O)c2ccccc2N1
    nt	-5.2
- CCOc1cc(C2C(C(=O)OCc3ccc(OC)cc3)=C(C)NC3=C2C(=O)CC(C)(C)C3)ccc1O (configuration not stated)
    2.2	0.09
- O=C(NCc1ccc(Cl)cc1)c1cc2c(s1)CS(=O)(=O)C2
    1.6	-1.1
- CCOc1cccc2c1OC1(CCC(C)CC1)N1N=C(c3ccco3)CC21 (configuration not stated)
    nt	-1.6
- CN(CC(=O)NCc1cccs1)S(=O)(=O)c1ccc2c(c1)C(=O)NCC(=O)N2
    1.3	nt
- COc1ccc2[nH]cc(CCNC(=O)NC3CCCCC3)c2c1
    1.4	-3.1
- O=C(Nc1nccs1)c1ccc(=O)oc1
    nt	-0.17
- O=C(Cn1ncc2c1-c1ccccc1OC2)NCCCN1CCc2ccccc2C1
    1.6	-0.06
- CCN(CC)CCN(C(=O)c1cccs1)c1nc2c(F)cccc2s1
    0.57	nt
- O=C(CSc1nccn1Cc1ccc(F)cc1)NC1CCCC1
    0.49	nt
- CCOC(=O)c1c(CN(C)C)n(C)c2cc(Br)c(O)c(CN(C)C)c12
    0.3	0.42
- O=C(Nc1nonc1-c1ccc(Br)cc1)c1cccc2ccccc12
    2.3	0.96
- Cc1ccc(C)c(CN2CCN(Cc3ccccc3)S2(=O)=O)c1
    0.99	nt
- O=C(CCc1nnc2ccc(N3CCCCC3)nn12)N1CCCCC1
    0.45	nt
- c1ccc(-c2csc(N3CCOCC3)n2)cc1
    nt	-1.3
- O=C(O)CCc1nc2ccccc2oc1=O
    -2.2	-2.9
- CCCCN(Cc1cc2cc(OC)ccc2[nH]c1=O)S(=O)(=O)c1ccc(C)cc1
    1.6	0.02
- c1ccc(C(c2ccccc2)c2ccn[nH]2)cc1
    nt	-1.6
- O=C(COCc1cc(-c2cccs2)on1)NC1CCCC1
    -1.6	nt
- CCCC(=O)Nc1nc2nccc(C)n2n1
    0.95	-1.3
- O=C(NCCCn1ccnc1)C1CC(c2cccc(Br)c2)=NO1 (configuration not stated)
    -0.55	-0.27
- COc1ccc2nc(C)cc(Nc3ccc(Cl)cc3)c2c1
    1	-2
- OC(CN1CCN(C2CCCCC2)CC1)c1ccc2[nH]ccc2c1 (configuration not stated)
    -1.4	-1.4
- CN(C)S(=O)(=O)N1CCC(N2CCOCC2)CC1
    0.93	nt
- Cc1cc(C)c(NS(=O)(=O)c2cc(-c3cnc(C)o3)ccc2C)c(C)c1
    0.69	nt
- Cc1c(C(=O)N2CCOCC2)oc2c1-c1nn(CC(=O)NC3CCCC3)cc1CC2
    2.4	nt
- Cc1ccc(N2CC(O)=C(c3nc4ccccc4[nH]3)C2=N)c(C)c1
    2.8	-2.4
- Cc1cccc(CNS(=O)(=O)c2ccc(-c3cc(C(F)(F)F)on3)s2)c1
    1.3	nt
- Cc1ccc(S(=O)(=O)N(C2=CC=CCC2Cc2ccccc2)C(F)F)cc1 (configuration not stated)
    nt	-0.15
- O=C(CN1C(=O)CSc2ccc(S(=O)(=O)N3CCOCC3)cc21)NCCCN1CCOCC1
    0.25	nt
- Cc1ccc(-c2coc(-c3cccc(N(S(C)(=O)=O)S(C)(=O)=O)c3)n2)cc1
    1	nt
- COc1ccc(OC)c(S(=O)(=O)Nc2ccc3c(c2)sc(=O)n3C)c1
    1.8	nt
- Cc1cc2oc(C(=O)Nc3sc4c(c3C(=O)NCc3ccco3)CCC4)cc(=O)c2cc1C
    12*	6.6*
- O=S(=O)(Cc1ccccc1)c1ccc(Cl)cc1
    1.7	-3.4
- c1ccc(Oc2cccc(CN3CCN(Cc4ccccn4)CC3)c2)cc1
    2.1	-2.6
- CC(C1CC1)n1nccc1NC(=O)COc1ccc(Cl)cc1 (configuration not stated)
    -0.43	-2.4
- NC(=O)C1CCN(C(=O)c2cccc3sc(N4CCCc5ccccc54)nc23)CC1
    1.1	-1.3
- COc1ccc(-c2nc3c(C#N)c[nH]n3c2NC2CCC(C)CC2)cc1 (configuration not stated)
    -0.34	-1.4
- COc1ccc(-c2nnc(SCc3cc(=O)c4cc(C)cc(C)c4[nH]3)n2C)cc1
    -0.16	nt
- CCc1nnc2c(Nc3ccc(N4CCOCC4)c(Cl)c3)nc3ccccc3n12
    0.76	-1.5
- COc1ccccc1NC(=O)Nc1nc2c(s1)CCCC2
    1.5	nt
- CCC(C(=O)NCCCOC)N1C(=O)CCn2nc(C)cc21 (configuration not stated)
    2.4	nt
- CCCCn1c(C)c(C)c2c1ncn1nc(-c3cccs3)nc21
    0.88	1.1
- CCc1nn(CC(=O)N2CCCCC2)c(=O)c2cccn12
    1.6	-1

# Next compounds follow:
# Every second line gives: HIV TAR-Tat	CDC25B CDK2 inh
- CCOc1cc(C)c(C(C)C)cc1S(=O)(=O)n1ccnc1C
    -0.32	-1.1
- C=C(C)Cn1c(N2CCN(C)CC2)nc2c1c(=O)[nH]c(=O)n2C
    nt	-0.9
- O=C1CC(c2cccc(Cl)c2)C2=C(CC(c3ccccc3Cl)CC2=O)N1 (configuration not stated)
    0.46	3.1
- COc1ccc(N(C(=O)c2ccccc2)C2=CC3CCC(C2)N3C)cc1 (configuration not stated)
    nt	-0.88
- CCOC(=O)c1sc2ncn(CC(=O)OCC(C)C)c(=O)c2c1C
    0.14	-0.51
- O=S(=O)(c1ccc(Br)c2nsnc12)N1CCC(Cc2ccccc2)CC1
    2.8	-1.9
- COC(=O)C1CC(=O)N(c2ccccc2)C1 (configuration not stated)
    nt	-0.91
- O=C(Nc1ccc2c(c1)CCC2)C1CCN(c2cnccn2)CC1
    0.36	-1.4
- C=CCn1c(SCC(=O)Nc2ccccc2)nc2sc3c(c2c1=O)CC(C(C)C)OC3 (configuration not stated)
    1.5	-1.3
- O=C(Oc1ccccc1)c1ccc(CS(=O)(=O)c2ccc(C(F)(F)F)cn2)o1
    nt	-1.1
- CCOc1ccccc1NC(=O)Nc1c(C)n(C)n(-c2ccccc2)c1=O
    -0.96	-0.41
- Cc1cc(C)cc(OCc2nc(-c3cc(C)nc4ccccc34)no2)c1
    1.3	-0.13
- Cc1cc(C)cc(NC(=O)Cc2ccc(NC3=NC4CS(=O)(=O)CC4S3)cc2)c1 (configuration not stated)
    1.2	0.06
- CSc1nc2ccc(NC(=O)c3ccc([N+](=O)[O-])o3)cc2s1
    nt	0.97
- COc1ccc(S(=O)(=O)Nc2cc3c(cc2OC)n(C)c(=O)n3C)cc1
    0.01	-1.4
- CC1CCCC(Nc2c(-c3ccc(F)cc3)nc3c(C#N)c[nH]n23)C1C (configuration not stated)
    -1.6	-0.37
- O=C(CN1C(=O)c2ccccc2C1=O)NCc1csc(-c2cccs2)n1
    nt	-1.3
- COc1ccccc1C1NC(=O)NC(O)(C(F)(F)F)C1C(=O)c1ccccc1 (configuration not stated)
    nt	-0.92
- CCOc1ccc2nc(NC(=O)c3cc(=O)c4cc(Cl)ccc4o3)sc2c1
    -0.35	-1.4
- O=C(O)COc1cccc2ccccc12
    nt	0.99
- COc1ccc(NC2=NS(=O)(=O)C(c3ccc(C(C)C)cc3)=C2C)c(OC)c1
    -2.4	-0.08
- CCOC(=O)NNC(=S)Nc1ccccc1N1CCOCC1
    nt	-0.78
- CC1=C(c2ccc(C)c(C)c2)S(=O)(=O)NC1=NC(C)c1ccc2c(c1)OCCO2 (configuration not stated)
    1.5	-6.1
- O=C1Nc2ccc(Br)cc2C1Cc1nc2ccccc2c(=O)n1CCCO (configuration not stated)
    1.8	-1.5
- OC(CNCCc1cccs1)COc1ccccc1 (configuration not stated)
    nt	0.45
- CCCSc1nc(=O)c2c(n1C)NC(=O)CC2c1cc(F)cc(F)c1 (configuration not stated)
    -0.85	-1.2
- CSc1ncc(Cl)c(C(=O)N(C)c2ccccc2)n1
    2.3	-2.4
- O=C(Nc1nc(-c2ccc(Br)o2)ns1)c1ccc(Cl)cc1
    1.4	-2.1
- COc1ccc(C2c3c(oc4cc(C)cc(C)c4c3=O)C(=O)N2CCO)cc1OC (configuration not stated)
    0.22	-0.61
- O=C(CSc1ncnc2c1sc1cccc(F)c12)N1CCCC1
    -0.36	nt
- CC(C)CNC(=O)c1ccc2c(=O)n(CC(C)C)c3n[nH]c(=O)n3c2c1
    1.9	2.7
- Cc1cc(N2CCN(Cc3ccccc3)CC2)n2nc(-c3ccco3)nc2n1
    -7.4	nt
- CC(C)CCN(CCS(=O)(=O)N1CCNCC1)S(=O)(=O)c1ccc(C2CCCCC2)cc1
    1.5	nt
- CCOC(=O)CSc1nnc(CSc2ncccn2)n1C
    0.34	-2.4
- CC(C)(C)C(=O)Nc1nc(-c2cc3ccccc3oc2=O)cs1
    nt	0.55
- CCOc1ccc(N2C(=O)c3cccnc3C2Nc2ccc(Br)cc2)cc1 (configuration not stated)
    1.2	-1.5
- CCn1c(C(=O)N2CCC(C(=O)NCCCSC3CCCCC3)CC2)cc2sccc21
    0.78	-0.37
- CCOC(=O)CSc1nnc2c(n1)[nH]c1ccccc12
    1.8	-0.33
- O=C(Cn1cc2c(n1)CCCC2)NC1CCCCCC1
    nt	1.9
- COc1cc(OC)c(NC(=O)c2cnn(-c3ccc(F)cc3)c2-n2cccc2)cc1Cl
    1.6	nt
- Cc1nn(-c2ccc(Cl)cc2)cc1-c1noc(C(=O)N2CCCC2)n1
    0.14	nt
- CN(C)CCNC(=O)c1nc(-c2cccnc2)no1
    2.3	nt
- COc1cc(NC(=O)c2sc3nc[nH]c(=O)c3c2C)cc(OC)c1
    2.1	nt
- CC1=Cn2c(=O)c3ccccc3c(=O)n2C1
    nt	0.71
- O=C(CSc1nnc(-c2cccs2)n1-c1ccccc1)c1c[nH]c2ccccc12
    0.55	-1.9
- CCC1CCCCN1CCCNc1nn2nnnc2c2ccccc12 (configuration not stated)
    -0.65	-2.7
- CC(O)c1nc2ccccc2[nH]1 (configuration not stated)
    nt	-0.4
- CN1C(=O)c2[nH]nc(-c3ccc(F)cc3)c2C1c1cccnc1 (configuration not stated)
    0.93	-0.51
- CCOC(=O)C1=C(C)NC2=C(C(=O)CC(C)(C)C2)C1c1ccc(OC(C)=O)c(OC)c1 (configuration not stated)
    0.99	0.6
- CC1CC(C)CN(c2cc(NCC(=O)O)c3c4c(onc24)-c2ccccc2C3=O)C1 (configuration not stated)
    -5.8	12*

# New compounds follow:
# Every second line gives: HIV TAR-Tat	CDC25B CDK2 inh
- CC1CCN(C(=O)C2CCN(c3nc4cccnc4s3)CC2)CC1
    -0.8	nt
- Cc1[nH]nc(Nc2ccc(C(C)C)cc2)c1[N+](=O)[O-]
    0.38	-1.4
- Clc1cccc(CN2CCN(Cc3ccccn3)CC2)c1
    nt	0.39
- COc1ccc(C2C(C#N)=C(N)Oc3n[nH]c(C)c32)cc1O (configuration not stated)
    -1.2	-1.2
- OC[C@@H](O)C(O)[C@H](O)CO
    nt	-1.8
- Cn1c(=O)c2c(SCC(=O)Nc3nccs3)nc(C3CCCC3)nc2n(C)c1=O
    0.01	nt
- CCCC(=O)N1CC2(C)CN(C(=O)CCC)CC(C)(C1)C2
    nt	-0.21
- Cc1ccc2scc(N3CCc4ccccc4C3)c(=O)c2c1
    0.91	nt
- CN1CCN(c2ccc(N3CC(O)=C(c4nc5ccccc5[nH]4)C3=N)cc2)CC1
    0.25	-0.95
- Clc1cccc(-c2nn3c(COc4ccccc4)nnc3s2)c1
    -0.34	-0.72

# An excerpt from above in order of formula weight, largest number first.
# Every second line gives: HIV TAR-Tat	CDC25B CDK2 inh
- Clc1cccc(-c2nn3c(COc4ccccc4)nnc3s2)c1
    -0.34	-0.72
- Clc1cccc(CN2CCN(Cc3ccccn3)CC2)c1
    nt	0.39
- COc1ccc(C2C(C#N)=C(N)Oc3n[nH]c(C)c32)cc1O (configuration not stated)
    -1.2	-1.2
- CCCC(=O)N1CC2(C)CN(C(=O)CCC)CC(C)(C1)C2
    nt	-0.21

# The list goes on.
# Every second line gives: HIV TAR-Tat	CDC25B CDK2 inh
- Cc1c(O)c2cnn(-c3ccccc3)c2[nH]c1=O
    nt	0.36
- CC1=C(c2ccc(C)c(C)c2)S(=O)(=O)N(Cc2ccc(C(=O)NCc3cccnc3)cc2)C1=O
    -2.4	-1.2
- CCc1nnc(NC(=O)C2Cc3cc(S(=O)(=O)N4CCCCC4)ccc3N2C(C)=O)s1 (configuration not stated)
    0.79	nt
- O=S(=O)(NCc1ccccc1Cl)c1ccc2nc(-c3ccccc3)[nH]c2c1
    nt	-0.59
- CC1(C)CC(=O)c2c(oc3c(Cl)cc(NS(=O)(=O)c4ccc(Br)cc4)cc23)C1
    1.6	-1.4
- S=c1[nH]nc(-c2ccc(Cl)cc2)n1/N=C/c1cccnc1
    nt	-0.25
- Cn1nc(C(=O)N2CCc3ccccc32)c2c1-c1ccsc1CC2
    0.09	nt

# Whole records, quoted from the list. Order of screens: HIV TAR-Tat | CDC25B CDK2 inh
# Cn1nc(C(=O)N2CCc3ccccc32)c2c1-c1ccsc1CC2 in the list: 0.09 | nt
# S=c1[nH]nc(-c2ccc(Cl)cc2)n1/N=C/c1cccnc1 in the list: nt | -0.25
# CCc1nnc(NC(=O)C2Cc3cc(S(=O)(=O)N4CCCCC4)ccc3N2C(C)=O)s1 (configuration not stated) in the list: 0.79 | nt
# CC1=C(c2ccc(C)c(C)c2)S(=O)(=O)N(Cc2ccc(C(=O)NCc3cccnc3)cc2)C1=O in the list: -2.4 | -1.2
